A1 apoptosis 2 – A1 inhibitors via caspase activation, primary screen, cell-based, luminescence, HTS, two replicates; MEF A1-2A-BIM cells, caspase-Glo luminescence, 3 h; percent of clofoctol response, DMSO zero; caspase activation, % (test concentration not listed); 24,000 tested, under 10 active; in the data active = caspase activation above about 5.9%;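 note: wells of about 30 µL received 50 nL stock; the first replicate is given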
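Test system – A1-2A-BIM-expressing MEF cells · Input – 2500 cells/well · Medium – RPMI-1640 growth medium with 10% FBS · Compound dosing – 50 nL pinned compound · Timing – 3 h compound exposure at 37 °C · Technique – Caspase-Glo luminescence (DEVD substrate) · Evaluation – Caspase-3/7 activity from luminescence increase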
Starred values were filed as active, the others as inactive. Only part of the results is shown; rates above refer to the full screens.

| mol | A1 apoptosis 2 |
| --- | --- |
| C[C@H]1CN([C@@H](C)CO)C(=O)Cc2cc(NC(=O)Nc3ccccc3)ccc2O[C@H]1CN(C)Cc1ccccc1 | 1.3 |
| Cc1noc(C)c1S(=O)(=O)N(C)C[C@H]1OCCCC[C@H](C)Oc2ccc(NS(=O)(=O)c3ccc(Cl)cc3)cc2C(=O)N([C@H](C)CO)C[C@@H]1C | 0.5 |
| C[C@@H]1CN([C@H](C)CO)C(=O)c2cc(NS(C)(=O)=O)ccc2O[C@H]1CN(C)Cc1ccncc1 | -0.8 |
| C[C@H]1CN([C@@H](C)CO)C(=O)Cc2cc(NC(=O)Nc3cccc4ccccc34)ccc2O[C@@H]1CN(C)C(=O)Nc1cccc2ccccc12 | -0.4 |
| C[C@H](CO)N1C[C@H](C)[C@H](CN(C)S(=O)(=O)c2ccccc2)OCCCC[C@H](C)Oc2ccc(NC(=O)Nc3ccc(C(F)(F)F)cc3)cc2C1=O | -0.5 |
| C[C@@H]1CN([C@H](C)CO)C(=O)c2cc(NS(=O)(=O)c3cn(C)cn3)ccc2O[C@@H](C)CCCCO[C@H]1CN(C)CC1CCCCC1 | 0.8 |
| CNC[C@@H]1Oc2c(NS(=O)(=O)c3ccc(F)cc3)cccc2C(=O)N([C@@H](C)CO)C[C@H]1C | 0.4 |
| COc1ccc(S(=O)(=O)N(C)C[C@@H]2OCCCC[C@@H](C)Oc3ccc(NS(=O)(=O)c4cccs4)cc3C(=O)N([C@H](C)CO)C[C@@H]2C)cc1 | 0.4 |
| C[C@@H]1CN([C@@H](C)CO)C(=O)c2cc(NC(=O)Nc3ccc(F)cc3)ccc2O[C@H]1CN(C)C(=O)Nc1ccc2c(c1)OCO2 | 0.3 |
| COc1ccc(C#Cc2ccc3c(c2)[C@]2(C(=O)N3)[C@H](c3ccc(OCCO)cc3)N3[C@H](c4ccccc4)[C@H](c4ccccc4)OC(=O)[C@H]3[C@@H]2C(=O)Nc2nc3ccccc3s2)cc1 | -0.3 |
| C[C@H](CO)N1C[C@H](C)[C@@H](CN(C)Cc2ccc(C(F)(F)F)cc2)OCCCC[C@H](C)Oc2ccc(NS(=O)(=O)c3cn(C)cn3)cc2C1=O | -0.1 |
| O=C1O[C@H](c2ccccc2)[C@H](c2ccccc2)N2[C@H]1[C@@H](C(=O)O)[C@]1(C(=O)Nc3ccc(C#CCCO)cc31)[C@H]2c1ccc(O)cc1 | 0.9 |
| C[C@H]1CN([C@@H](C)CO)C(=O)c2cc(NC(=O)CCCN(C)C)ccc2O[C@@H]1CN(C)Cc1ccncc1 | 0.3 |
| Cc1noc(C)c1NC(=O)Nc1ccc2c(c1)CC(=O)N([C@@H](C)CO)C[C@H](C)[C@H](CN(C)S(=O)(=O)c1cn(C)cn1)O2 | -0.6 |
| COCCCNC(=O)[C@@]1(C)c2ccccc2C(=O)N(Cc2cc(F)cc(C(F)(F)F)c2)[C@H]1c1ccc(CO)cc1 | -0.3 |
| C[C@H]1CCCCO[C@H](CN(C)C(=O)Cc2ccccc2)[C@@H](C)CN([C@@H](C)CO)C(=O)c2cc(N(C)C)ccc2O1 | -1.0 |
| CC(C)NC(=O)Nc1cccc2c1O[C@H](CN(C)Cc1ccc3c(c1)OCO3)[C@@H](C)CN([C@H](C)CO)C2=O | 1.0 |
| COc1ccc(NC(=O)N(C)C[C@@H]2Oc3ccc(NC(=O)Cc4cn(C)c5ccccc45)cc3CC(=O)N([C@H](C)CO)C[C@H]2C)cc1 | 0.5 |
| C[C@@H]1CCCCO[C@H](CN(C)C(=O)CCC(F)(F)F)[C@@H](C)CN([C@H](C)CO)C(=O)c2cc(NC(=O)Nc3ccc4c(c3)OCO4)ccc2O1 | 0.5 |
| C[C@@H]1CN([C@H](C)CO)C(=O)c2cc(NC(=O)CCN3CCOCC3)ccc2O[C@@H]1CN(C)Cc1ccccc1 | -0.8 |

Some values from the results shown:
`COc1ccc(C#Cc2ccc3c(c2)[C@]2(C(=O)N3)[C@H](c3ccc(OCCO)cc3)N3[C@H](c4ccccc4)[C@H](c4ccccc4)OC(=O)[C@H]3[C@@H]2C(=O)Nc2nc3ccccc3s2)cc1` in A1 apoptosis 2 is entered as -0.3
`Cc1noc(C)c1NC(=O)Nc1ccc2c(c1)CC(=O)N([C@@H](C)CO)C[C@H](C)[C@H](CN(C)S(=O)(=O)c1cn(C)cn1)O2` in A1 apoptosis 2 is entered as -0.6

The listing continues:
| mol | A1 apoptosis 2 |
| --- | --- |
| COC(=O)CCCCCCC(=O)N/N=C/c1ccc(Br)s1 | 0.2 |
| C[C@@H]1CCCCO[C@H](CN(C)Cc2ccccc2)[C@@H](C)CN([C@@H](C)CO)C(=O)c2cc(NC(=O)Nc3ccc4c(c3)OCO4)ccc2O1 | -0.5 |
| CC(C)NC(=O)N(C)C[C@@H]1Oc2c(NC(=O)c3ccncc3)cccc2C(=O)N([C@@H](C)CO)C[C@@H]1C | 0.9 |
| Cc1ccc(S(=O)(=O)Nc2ccc3c(c2)C(=O)N([C@H](C)CO)C[C@H](C)[C@@H](CN(C)C(=O)Nc2cccc4ccccc24)O3)cc1 | -1.2 |
| COC(=O)[C@@]1(Cc2ccccc2N=[N+]=[N-])COC(c2ccc(OCCCO)cc2)=N1 | -3.1 |
| C[C@H]1CN([C@@H](C)CO)C(=O)CCCn2nncc2CO[C@H]1CN(C)C(=O)Nc1ccccc1C(F)(F)F | -0.1 |
| CNC[C@H]1Oc2ccc(NS(=O)(=O)c3ccccc3)cc2CC(=O)N([C@@H](C)CO)C[C@H]1C | 0.3 |
| COc1ccc(NC(=O)N(C)C[C@@H]2Oc3ccc(NC(=O)C4CC4)cc3C(=O)N([C@H](C)CO)C[C@@H]2C)cc1 | -0.5 |
| C[C@H](CO)N1C[C@H](C)[C@H](CN(C)C(=O)NC2CCCCC2)Oc2c(NS(=O)(=O)c3cccs3)cccc2C1=O | 1.1 |
| Cc1noc(C)c1NC(=O)N(C)C[C@H]1Oc2ccc(NS(C)(=O)=O)cc2CC(=O)N([C@@H](C)CO)C[C@H]1C | 1.0 |
| O=C(N/N=C/c1ccc(Oc2ccccc2)cc1)c1ccccn1 | -10.3 |
| C[C@H](CO)N1C[C@H](C)[C@H](CN(C)Cc2ccc(C(=O)O)cc2)Oc2ccc(NC(=O)Nc3cccc4ccccc34)cc2C1=O | 0.0 |
| C[C@@H]1CN([C@H](C)CO)C(=O)Cc2cc(N(C)C)ccc2O[C@H]1CN(C)S(C)(=O)=O | -0.3 |
| C[C@@H]1CCCCO[C@H](CN(C)C(=O)C2CCCCC2)[C@H](C)CN([C@@H](C)CO)C(=O)c2cc(NC(=O)Nc3ccc4c(c3)OCO4)ccc2O1 | -0.1 |
| C[C@@H]1CCCCO[C@H](CN(C)C(=O)Cc2ccccc2)[C@H](C)CN([C@@H](C)CO)C(=O)c2cc(NC(=O)Nc3ccc(F)cc3)ccc2O1 | -0.7 |
| CC(C)NC(=O)N(C)C[C@@H]1OCCCC[C@@H](C)Oc2ccc(NC(=O)Nc3ccc4c(c3)OCO4)cc2C(=O)N([C@@H](C)CO)C[C@@H]1C | 0.8 |
| C[C@@H]1CN([C@H](C)CO)C(=O)Cc2cc(NC(=O)Cn3cnnn3)ccc2O[C@H]1CN(C)Cc1ccc(-c2ccccc2)cc1 | 0.2 |
| O=C1O[C@@H](c2ccccc2)[C@@H](c2ccccc2)N2[C@@H](c3ccc(OCCO)cc3)[C@]3(C(=O)Nc4ccc(C#CC5=CCCCC5)cc43)[C@@H](C(=O)O)[C@H]12 | 0.3 |
| C[C@@H]1CN([C@@H](C)CO)C(=O)c2cc(NS(=O)(=O)c3cn(C)cn3)ccc2O[C@@H]1CN(C)Cc1ccncc1 | 0.2 |
| C[C@H](CO)N1C[C@H](C)[C@H](CN(C)Cc2ccncc2)Oc2ccc(NC(=O)Nc3cccc4ccccc34)cc2C1=O | -1.2 |

3 structures out of the list, ordered by count of non-hydrogen atoms, rising:
| mol | A1 apoptosis 2 |
| --- | --- |
| COC(=O)[C@@]1(Cc2ccccc2N=[N+]=[N-])COC(c2ccc(OCCCO)cc2)=N1 | -3.1 |
| Cc1ccc(S(=O)(=O)Nc2ccc3c(c2)C(=O)N([C@H](C)CO)C[C@H](C)[C@@H](CN(C)C(=O)Nc2cccc4ccccc24)O3)cc1 | -1.2 |
| C[C@@H]1CCCCO[C@H](CN(C)Cc2ccccc2)[C@@H](C)CN([C@@H](C)CO)C(=O)c2cc(NC(=O)Nc3ccc4c(c3)OCO4)ccc2O1 | -0.5 |

Carrying on.
| mol | A1 apoptosis 2 |
| --- | --- |
| Cc1noc(C)c1NC(=O)N(C)C[C@@H]1Oc2ccc(NC(=O)Nc3ccc4c(c3)OCO4)cc2C(=O)N([C@@H](C)CO)C[C@H]1C | -0.8 |
| COC(=O)CCCCCCC(=O)N/N=C/c1ccc(OCC(N)=O)cc1 | -0.2 |
| COc1ccc(S(=O)(=O)Nc2cccc3c2O[C@@H](CN(C)Cc2ccc(C(=O)Nc4ccccc4N)cc2)[C@H](C)CN([C@@H](C)CO)C3=O)cc1 | -1.4 |
| Cc1ccccc1CN(C)C[C@H]1OCc2cn(nn2)CCCC(=O)N([C@@H](C)CO)C[C@H]1C | 0.0 |
| O=C(CCCCCCC(=O)Nc1ccccc1O)N=NC=C1C=CN(O)C=C1 | 0.2 |
| C[C@@H]1CCCCO[C@H](CN(C)C(=O)C2CCCCC2)[C@@H](C)CN([C@H](C)CO)C(=O)c2cc(NC(=O)NC3CCCCC3)ccc2O1 | 1.3 |
| Cc1noc(C)c1NC(=O)N(C)C[C@@H]1OCCCC[C@@H](C)Oc2ccc(NC(=O)c3ccncc3)cc2C(=O)N([C@H](C)CO)C[C@H]1C | 0.4 |
| C[C@@H]1CCCCO[C@H](CN(C)C(=O)Nc2ccc3c(c2)OCO3)[C@H](C)CN([C@@H](C)CO)C(=O)c2cc(NC(=O)Cc3ccccc3)ccc2O1 | 0.4 |
| C[C@@H]1CCCCO[C@H](CN(C)C(=O)Cc2ccccc2)[C@@H](C)CN([C@H](C)CO)C(=O)c2cc(NC(=O)C3CCCCC3)ccc2O1 | 0.1 |
| C[C@H](CO)N1C[C@H](C)[C@H](CN(C)C(=O)NC2CCCCC2)Oc2ccc(NS(=O)(=O)c3ccc(F)cc3)cc2CC1=O | -0.1 |
| Cc1noc(C)c1NC(=O)N(C)C[C@H]1Oc2ccc(NC(=O)c3ccncc3)cc2CC(=O)N([C@@H](C)CO)C[C@@H]1C | 0.4 |
| C[C@@H]1CN([C@H](C)CO)C(=O)Cc2cc(NC(=O)CCCCCC(=O)Nc3ccccc3N)ccc2O[C@@H]1CN(C)S(=O)(=O)c1ccc(Cl)cc1 | 0.6 |
| COc1ccc(NC(=O)N(C)C[C@@H]2OCCCC[C@H](C)Oc3ccc(NC(=O)Nc4ccc(F)cc4)cc3C(=O)N([C@H](C)CO)C[C@@H]2C)cc1 | 1.8 |
| C[C@H](CO)N1C[C@H](C)[C@H](CN(C)Cc2ccncc2)OCCCC[C@H](C)Oc2ccc(NC(=O)Cc3ccccc3)cc2C1=O | 1.7 |
| C[C@@H]1CN([C@H](C)CO)C(=O)c2cc(NC(=O)Nc3ccccc3)ccc2O[C@@H](C)CCCCO[C@H]1CN(C)S(=O)(=O)c1ccc(Cl)cc1 | -1.7 |
| CC(C)NC(=O)N(C)C[C@@H]1Oc2ccc(NC(=O)Cc3ccccc3)cc2C(=O)N([C@@H](C)CO)C[C@H]1C | -0.1 |
| C[C@H](CO)N1C[C@H](C)[C@@H](CN(C)S(=O)(=O)c2ccc(Cl)cc2)Oc2ccc(NC(=O)Cn3cnnn3)cc2C1=O | 0.0 |
| C[C@@H]1CN([C@@H](C)CO)C(=O)c2cccc(NC(=O)c3nc4ccccc4s3)c2O[C@H]1CN(C)C(=O)Nc1cccc2ccccc12 | -1.2 |
| C[C@H]1CN([C@@H](C)CO)C(=O)Cc2cc(NS(=O)(=O)c3ccc(F)cc3)ccc2O[C@H]1CN(C)S(=O)(=O)c1ccc(Cl)cc1 | -0.8 |
| COc1ccc(S(=O)(=O)N(C)C[C@@H]2Oc3c(NC(=O)C4CCCCC4)cccc3C(=O)N([C@@H](C)CO)C[C@H]2C)cc1 | -0.5 |
| Cc1noc(C)c1S(=O)(=O)Nc1ccc2c(c1)C(=O)N([C@H](C)CO)C[C@H](C)[C@H](CN(C)C(=O)CCC(F)(F)F)OCCCC[C@H](C)O2 | -0.4 |
| C[C@@H]1CN([C@@H](C)CO)C(=O)c2cc(NS(=O)(=O)c3cn(C)cn3)ccc2O[C@@H]1CN(C)C(=O)NC1CCCCC1 | -1.7 |
| C[C@@H]1CN([C@@H](C)CO)C(=O)c2cccc(NC(=O)c3cnccn3)c2O[C@H]1CN(C)C(=O)Nc1ccccc1 | -0.9 |
| COc1ccc(C2=NOC(C(=O)NO)C2)cc1OC1CCCC1 (stereo not given) | -0.1 |
| C[C@H](CO)N1C[C@H](C)[C@H](CN(C)S(=O)(=O)c2cn(C)cn2)OCCCC[C@H](C)Oc2ccc(NS(=O)(=O)c3cn(C)cn3)cc2C1=O | -0.6 |
| C[C@@H]1CN([C@@H](C)CO)C(=O)c2cc(NC(=O)CCC(F)(F)F)ccc2O[C@@H]1CN(C)Cc1ccc(C(F)(F)F)cc1 | -1.5 |
| C[C@H](CO)N1C[C@H](C)[C@@H](CN(C)S(=O)(=O)c2ccc(F)cc2)OCCCC[C@H](C)Oc2ccc(NC(=O)Cc3ccccc3)cc2C1=O | -0.6 |
| C[C@H](CO)N1C[C@H](C)[C@H](CN(C)C(=O)NC2CCCCC2)OCCCC[C@H](C)Oc2ccc(NC(=O)c3ccccc3)cc2C1=O | -0.7 |
| C[C@H]1CN([C@@H](C)CO)C(=O)c2cc(NC(=O)CCN3CCOCC3)ccc2O[C@@H]1CN(C)C(=O)Nc1ccc(F)cc1 | 1.3 |
| Cc1noc(C)c1S(=O)(=O)Nc1ccc2c(c1)CC(=O)N([C@H](C)CO)C[C@H](C)[C@H](CN(C)Cc1ccccc1)O2 | -0.5 |
| COc1ccc(S(=O)(=O)N(C)C[C@@H]2Oc3ccc(NC(=O)Cn4cnnn4)cc3C(=O)N([C@@H](C)CO)C[C@@H]2C)cc1 | -0.1 |
